T cruzi inh – inhibitors of intracellular T. cruzi growth, primary screen, luminescence, NIH3T3 host cells. inhibition, % (concentration not given with the values). 300,000 tested, 1.4% active. AID 1885, 2009. T. cruzi beta-gal in NIH3T3, 90 h;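 active = mean inhibition across valid replicates above about 55%, limit read from the data; inconclusive = mean below that limit but half or more replicates reach it; inactive = mean below it, under half of replicates reach it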;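 note: signal also drops with host cell toxicity which is not excluded here; 0% = plate median of DMSO wells and 100% = zero luminescence signal; higher percent means less beta-gal luminescence so fewer parasites; stock transfer was 50 nL into about 50 µL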
Beta apoptosis – inhibitors of cytokine-induced beta cell apoptosis, primary screen, luminescence; INS-1E cytokine-induced death, ATP luminescence, 48 h; percent of positive-control rescue, neutral wells zero; protection from apoptosis, % (no concentration beside the values); 300,000 tested, 0.8% active; AID 435005, 2010;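 active = all replicates at 75% or more, or half of them and the mean; inconclusive = half reach 75% but not the mean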;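 note: 0% = cytokine-treated negative control wells and 100% = positive control rescue; higher means more ATP so stronger rescue from cytokine killing; wells of about 40 µL received 100 nL stock; the first replicate is given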
Calb FLC – C. albicans growth inhibition with fluconazole, primary screen, CaCi-2 strain, Alamar Blue fluorescence. growth inhibition, % (no concentration beside the values). 300,000 tested, 0.57% active. C. albicans CaCi-2 (fluconazole-resistant clinical isolate) + fluconazole, 48 h;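 active = most replicates above 75%; inconclusive = exactly half above 75%; inactive = most below 75%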;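 note: all wells also contain fluconazole at 8 µg/ml as a sub-toxic cotreatment; 0% = median of DMSO wells and 100% = median of geldanamycin control wells; wells of about 8 µL received 7.5 nL stock; the first replicate is given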
MLL AF4-AF9 inh – inhibitors of AF4 peptide binding to AF9, primary screen, biochemical, AlphaScreen, biotin-AF4 peptide, FLAG-AF9, single point; Protein AF-9 (Homo sapiens), P42568; inhibition, % at 10 µM; 350,000 tested, 0.47% active;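 active = every replicate reaching a set inhibition limit, whatever the replicate mean, cut at about 25% in these data; inconclusive = mean inhibition reaches that limit but some replicates miss it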;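 note: 0% = plate neutral control median and 100% = total signal loss; the record names both 10 and 1 µM as test concentration; the first replicate is given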
Target sequence (P42568 whole entry, looked up): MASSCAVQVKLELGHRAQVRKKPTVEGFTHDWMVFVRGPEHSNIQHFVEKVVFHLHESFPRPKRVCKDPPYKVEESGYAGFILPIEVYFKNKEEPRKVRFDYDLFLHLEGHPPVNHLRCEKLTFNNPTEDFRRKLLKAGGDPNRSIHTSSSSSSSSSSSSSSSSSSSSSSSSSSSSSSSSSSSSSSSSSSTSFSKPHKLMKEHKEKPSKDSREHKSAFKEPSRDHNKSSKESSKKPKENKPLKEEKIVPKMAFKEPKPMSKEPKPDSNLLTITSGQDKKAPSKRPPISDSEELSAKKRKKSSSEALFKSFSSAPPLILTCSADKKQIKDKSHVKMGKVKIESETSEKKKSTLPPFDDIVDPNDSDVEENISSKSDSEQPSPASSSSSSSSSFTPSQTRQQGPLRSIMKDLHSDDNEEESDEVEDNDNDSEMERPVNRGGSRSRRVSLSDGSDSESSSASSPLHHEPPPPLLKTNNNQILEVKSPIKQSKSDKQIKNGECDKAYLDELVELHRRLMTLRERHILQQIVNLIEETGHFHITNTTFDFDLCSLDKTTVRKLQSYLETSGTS
Ecoli rRNA inh – reduced GFP signal of wild-type E. coli, primary screen, bacterial rRNA inhibitor project, GFP/RFP fluorescence, OD600, single point | E. coli WT GFP vs humanized-ribosome RFP mutants, 24 h; stronger effect = lower value; DMSO median 0, no signal -100 | GFP signal change (wild-type ribosome), % (no concentration beside the values) | 350,000 tested, 1.6% active | AID 720706, 2013;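 active = significant combined selectivity score with lowered wild-type GFP, culture density cut under 30%, mutant RFP and density less affected; inactive = any of these conditions unmet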; note: one replicate is shown; some compounds called inactive have numbers as strong as hits
ALR inh – inhibitors of human ALR sulfhydryl oxidase, primary screen, biochemical, H2O2 detection, HRP-luminol luminescence, single point | FAD-linked sulfhydryl oxidase ALR (Homo sapiens), P55789 | purified ALR, DTT oxidation | inhibition, % (no concentration beside the values) | 290,000 tested, 3.8% active | AID 485317, 2010;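 active = mean and each replicate at 75% or more; inconclusive = only one of the two met; inactive = neither met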;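 note: stock transfer was 7.5 nL into about 7.5 µL; 0% = neutral wells and 100% = wells with inactivated enzyme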
Target sequence (P55789 whole entry, looked up): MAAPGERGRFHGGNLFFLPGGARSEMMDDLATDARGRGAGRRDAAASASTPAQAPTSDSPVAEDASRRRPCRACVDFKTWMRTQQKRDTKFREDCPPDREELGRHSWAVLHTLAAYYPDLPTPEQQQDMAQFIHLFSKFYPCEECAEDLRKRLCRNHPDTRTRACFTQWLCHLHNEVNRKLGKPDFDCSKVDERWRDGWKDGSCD
RanGTP-Imp inh – inhibitors of RanGTP-importin-beta interaction, primary screen, biochemical, FRET, CFP-Ran, YFP-importin-beta, homogeneous; Ran GTPase (GTP-bound) - importin-beta complex; cell-free CFP-Ran/YFP-importin-beta FRET ratio; inhibition, % (no concentration beside the values); 300,000 tested, 1.1% active;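 active = most replicates above 15%; inconclusive = exactly half above 15%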;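 note: 0% = DMSO wells and 100% = Ran loaded with GDP instead of GTP; wells of about 40 µL received 100 nL stock; the first replicate is given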
FGF22 binding – binders of human FGF22 protein, primary screen, FGF22 synaptogenesis inhibitor project, biophysical, thermal shift, single point. Fibroblast growth factor 22 (Homo sapiens), Q9HCT0. recombinant FGF22 thermal shift, SYPRO orange fluorescence; percent of sucrose octasulfate shift, DMSO zero. calls only at 9.99 µM. 340,000 tested, 1.5% active. AID 651658, 2012;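 active = melting point raised past a set limit in the mean and every replicate; inconclusive = no clear call; three in four hits are not shown here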
Target sequence (Q9HCT0 whole entry, looked up): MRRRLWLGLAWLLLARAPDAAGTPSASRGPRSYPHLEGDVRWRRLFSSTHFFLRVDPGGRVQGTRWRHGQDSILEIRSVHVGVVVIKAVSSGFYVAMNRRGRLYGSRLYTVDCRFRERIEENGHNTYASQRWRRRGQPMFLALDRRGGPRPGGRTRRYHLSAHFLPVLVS
Ecoli rRNA inh OD600 – also measured in Ecoli rRNA inh; calls as there; OD600 change, %; measured here: OD600 growth;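 optical density of the mix in the first replicate; 0 = DMSO median and -100 = no signal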
Ecoli rRNA inh RFP – recorded beside Ecoli rRNA inh, whose call it bears; RFP signal change, %; measured here: RFP humanized mutant strains;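 first replicate; 0 = DMSO median and -100 = no signal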
* hit, by the source's call; i = inactive; ? = inconclusive; . = not tested or not shown; & = joins results of further samples. The list is partial; rates above refer to the full screens.

entry	Compound	FGF22 binding	T cruzi inh	ALR inh	RanGTP-Imp inh	MLL AF4-AF9 inh	Ecoli rRNA inh OD600	Beta apoptosis	Ecoli rRNA inh	Calb FLC	Ecoli rRNA inh RFP
1	Cc1ccc2c(c1)C(c1ccccc1)N(C(=O)c1ccccc1[N+](=O)[O-])CC(=O)N2 (centres undefined)	i	-2	-7	-1.5	3.6	2	-3	7	1	1.0
2	Cc1noc(C)c1NC(=O)N(C)C[C@H]1Oc2ccc(NC(=O)Cc3ccccc3)cc2C(=O)N([C@H](C)CO)C[C@@H]1C	i	.	3	.	-2.0&-1.2	-3&6	1	3&22	.	0.5&2.5
3	Cc1ccc(C2CC(c3ccc(C)cc3)n3nc(N)nc3N2)cc1 (centres undefined)	i	29	-9	-2.3	2.8	-6	103*	3	-3	-1.0
4	O=C1CC(C(=O)O)c2ccccc2N1 (centres undefined)	.	5	-3	-1.5	.	.	-3	.	-1	.
5	Cc1nnsc1C(=O)N/N=C/c1cccc(C(F)(F)F)c1	i	-13	-1	-2.0	-5.9	2	3	4	20	1.1
6	CC(=O)CCc1c(C)nc2ccc(C(=O)O)cc2c1Cl	i	-3	2	8.1	3.6	3	.	6	-29	-6.2
7	COc1cccc(C(C(=O)NC2CCCC2)N(CC2CCCO2)C(=O)Cc2cccs2)c1 (centres undefined)	.	-7	-17	8.1	2.9	8	0	8	-12	1.3
8	COc1ccc(C(=O)Nc2cccc(NC(=O)c3ccc(OC)c(OC)c3)n2)cc1OC	i	-40	.	2.6	3.9	-11	14	-6	-8	-1.8
9	COc1ccc(C(=O)NCC(O)CN2CCOCC2)cc1[N+](=O)[O-] (centres undefined)	i	-6	-14	0.9	3.8	9	-3	5	3	-0.7
10	Cc1ccc2oc(-c3ccc(NC(=O)c4ccncc4)cc3O)nc2c1	i	4	0	1.6	-1.7	5	0	13	-25	-3.6
11	CCC12CN3CC(CC)(CN(C1)C3c1ccc(OC(C)C)cc1)C2=O (centres undefined)	.	5	4	-2.9	.	.	-1	.	4	.
12	O=C(Cc1ccc(Cl)cc1)Nc1ccc(SC(F)F)cc1	.	2	70	-3.6	.	.	0	.	16	.
13	CC(=O)c1ccc(N2CCN(C(=S)Nc3ccccc3)CC2)cc1	.	-7	2	1.4	.	.	.	.	3	.
14	O=C(N/N=C\c1ccccc1)c1ccccc1-n1cccc1	i	-11	-1	3.2	7.7	5	0	6	16	1.8
15	Cc1ccccc1-c1nc(CN2CCC(C(=O)NCCCN3CCOCC3)CC2)c(C)o1	.	28	1	-0.1	.	.	4	.	-12	.
16	COc1cc(C2N(c3ccc(Cl)cc3)C(=O)C3CCCN32)cc(OC)c1OC (centres undefined)	i	-6	-7	0.1	6.3	5	-3	3	-8	-0.9
17	O=C(C1CCCO1)N1CCN(c2c3c(nc4cc(-c5ccc(F)cc5)nn24)CCC3)CC1 (centres undefined)	i	-2	7	-1.6	7.7	3	4	0	-6	1.7
18	COc1ccccc1N1CCN(C(=O)c2cc(C3CC3)on2)CC1	i	-13	.	-0.8	-0.3	-7	-3	-8	3	-2.2
19	CS(=O)(=O)NN1C(=O)c2ccccc2NC1c1ccccc1O (centres undefined)	i	2	2	-1.2	-1.3	7	-1	6	-6	-8.2
20	COc1cccc(CN2CCN(C(=O)c3cccc4ccccc34)CC2)c1OC	i	11	-6	5.3	-42	-6	-2	-2	11	-5.3
21	O=C(COc1ccc(-n2ccnc2)cc1)Nc1cccc(Cl)c1	i	-7	-4	4.4	5.0	-40	0	-26	9	-0.1
22	CCOc1ccc(C(=O)NCc2ccco2)cc1	.	-2	33	0.0	.	.	10	.	0	.
23	CCN1CCN(CC(=O)NC2CCCCC2)C(=O)C1=O	i	-7	-6	-3.5	-4.3	8	-6	9	-4	2.3
24	CCOC(=O)C1=C(N)n2c(s/c(=C\c3ccco3)c2=O)=C(C(=O)OC(C)C)C1c1ccco1 (centres undefined)	.	?	-4	1.4	.	.	.	.	-5	.
25	COc1cccc(CNC(=O)c2cc(COc3c(F)cccc3F)on2)c1	.	-2	.	-2.1	-1.0	-41	0	-29	33	-6.6
26	N#Cc1nc(Cc2ccccc2)oc1N1CCCC1	.	0	-5	5.1	3.7	-13*	-2	-23*	3	0.1*
27	CC(=O)c1cc(C#N)c(SCc2ccccc2)nc1C	.	16	-2	1.4	.	.	2	.	16	.
28	O=C(CN1CCN(S(=O)(=O)N2CCCCCC2)CC1)Nc1cc(Cl)ccc1Cl	i	15	.	?	-4.2	16	2	5	-9	-2.3
29	COc1ccc(CNS(=O)(=O)c2ccc(-n3cnnn3)c(OC)c2)cc1	i	4	-18	?	0.4	5	2	1	6	2.4
30	COc1ccccc1C(=O)NCc1ccco1	i	1	0	?	-2.4	15	-4	20	29	4.6

The closing two records of the part above are carried over, then new ones follow.
entry	Compound	FGF22 binding	T cruzi inh	ALR inh	RanGTP-Imp inh	MLL AF4-AF9 inh	Ecoli rRNA inh OD600	Beta apoptosis	Ecoli rRNA inh	Calb FLC	Ecoli rRNA inh RFP
29	COc1ccc(CNS(=O)(=O)c2ccc(-n3cnnn3)c(OC)c2)cc1	i	4	-18	?	0.4	5	2	1	6	2.4
30	COc1ccccc1C(=O)NCc1ccco1	i	1	0	?	-2.4	15	-4	20	29	4.6
31	CCC(=O)NNC(=O)Cc1c(C)n(C(=O)c2ccc(Cl)cc2)c2ccc(OC)cc12	i	-6	-3	-0.1	0.0	14	-11	2	-1	1.3
32	COc1ccccc1NC(=O)c1cc(Br)ccc1Cl	i	-5	.	3.3	-2.9	-27	-1	-23	24	-5.4
33	CCCCN(CCCC)Cc1ccc(C(=O)NNC(=O)Nc2ccc(F)cc2)o1	i	-9	12	1.8	-20	-1	4	5	-13	-3.1
34	O=C(NC[C@@H]1CCCO1)c1cccc2c1C(=O)c1ccc(N3CCOCC3)cc1S2(=O)=O	i	.	-5	.	-1.8	11	-4	11	.	1.2
35	Cc1ccc(NC(=O)c2cccc(S(=O)(=O)N(C)c3ccccc3)c2)cc1S(=O)(=O)N1CCOCC1	.	9	-4	3.3	.	.	2	.	20	.
36	CN(CC(=O)Nc1ccccc1Br)C(=O)CNC(=O)c1ccc2c(c1)OCO2	i	-12	-3	-0.7	-2.0	4	2	2	7	2.9
37	NS(=O)(=O)c1ccc(Sc2ccc3ccccc3c2)nc1	i	-16	99*	?	0.0	-20	-4	-11	14	-1.5
38	Cc1ccc(C(=O)Nc2ccccc2C(=O)N2CCCCC2C)cc1 (centres undefined)	i	-20	0	3.8	2.4	4	-1	4	-4	-0.8
39	CCn1cc(SCC(=O)N2CCOCC2)c2ccccc21	i	-22	4	-2.5	0.4	0	-6	1	1	-8.3
40	O=C(Nc1cccc(C(F)(F)F)c1)C1C2CC3OC(=O)C1C3C2 (centres undefined)	.	-16	.	2.3	.	.	-1	.	-4	.
41	COc1ccc(-c2csc(N(CCCN(C)C)C(=O)c3ccccc3C)n2)cc1	i	29	-23	3.0	31*	-33	8	-32	-5	4.8
42	CC(Oc1ccccc1)C(=O)Nc1nnc(S(=O)(=O)N(C)c2ccccc2)s1 (centres undefined)	i	-13	7	0.6	0.1	-1	5	-4	0	0.8
43	COc1cc(-c2cc(C(=O)O)c3cc4c(cc3n2)OCCO4)cc(OC)c1OC	i	-7	1	4.5	6.0	3	2	8	9	-3.0
44	Clc1ccc2c(c1)[C@H]1OCC[C@H]1[C@@H](c1ccco1)N2	i	-24	61	?	1.9&-2.5	-3	-19	-1	8	2.7
45	Cc1cc(NC(=O)C2CCCN(S(=O)(=O)c3c(C)noc3C)C2)n[nH]1 (centres undefined)	i	0	-8	-1.6	0.7	.	2	.	-1	.
46	O=C(CC1Sc2ccccc2NC1=O)NCc1ccccc1 (centres undefined)	i	-2	-7	?	-4.5	7	-6	13	-2	-3.7
47	Clc1ccc(SCCCCn2cncn2)cc1	.	-1	-4	2.0	.	.	-7	.	12	.
48	O=C(O)c1ccc(/C=C/C(=O)c2ccc3c(c2)OCCCO3)cc1	i	-20	97*	5.0	2.0	-1	.	0	18	-3.7
49	COc1ccccc1NC(=O)CSc1nnc(C)o1	.	-7	-7	1.8	.	.	0	.	3	.
50	CCC(C)c1ccc(S(=O)(=O)Nc2cccnc2)cc1 (centres undefined)	i	0	20	2.1	2.3	-13	-6	-15	-3	-0.4
51	COc1ccc(NC(=O)CN2CCN(c3nc(-c4ccc(F)cc4)cs3)CC2)c(OC)c1	i	16	-28	0.3	-2.2	2	-1	8	-20	8.7
52	COc1ccc(NC(=O)c2ccccc2N2C(=O)C3C4C=CC(C5CC45)C3C2=O)c(OC)c1 (centres undefined)	i	-1	-5	4.6	-11	1	-10	3	13	-1.8
53	FC(F)(F)c1cccc(N2CCN(CC3CC4C=CC3C4)CC2)c1 (centres undefined)	.	7	-8	3.7	.	.	7	.	-18	.
54	CC(=O)N(Cc1cc2cc(C)c(C)cc2n2nnnc12)CC1COCCO1 (centres undefined)	.	-4	-4	2.4	.	.	-3	.	2	.
55	O=C(CSc1ncnc2nc[nH]c12)N1CCOCC1	.	-21	3	2.6	.	.	-3	.	21	.
56	CCCCOC(=O)C1=C(C)Nc2ncnn2C1c1ccc(OC)c(OC)c1 (centres undefined)	.	-10	8	?	.	.	-4	.	?	.
57	C/C(=C\C(=O)c1ccc(Br)cc1)NNC(=O)c1ccc(O)cc1	i	8	36	-1.6	-0.5	-6	.	4	-12	5.9
58	Cc1ccc(C(=O)N2CCC(C(=O)c3c(C)cc(C)cc3C)CC2)cc1	i	22	-3	2.1	-3.1	-32	2	4	1	-1.3
59	Oc1ccc2c(c1)oc1cc(O)ccc12	.	-38	99*	1.7	.	.	6	.	12	.
60	Cc1cc(C)c(C(=O)OCCNC(=O)c2cccnc2)cc1C	.	-12	2	-1.1	.	.	1	.	-6	.

(more compounds)
entry	Compound	FGF22 binding	T cruzi inh	ALR inh	RanGTP-Imp inh	MLL AF4-AF9 inh	Ecoli rRNA inh OD600	Beta apoptosis	Ecoli rRNA inh	Calb FLC	Ecoli rRNA inh RFP
61	CCCCN1C[C@H](Cc2ccccc2)[C@@H](CC(=O)Nc2ccccc2)C1=O	i	19	-2	-2.0	-4.2	3	-1	-3	0	-1.6
62	COc1ccc(N(C)S(=O)(=O)c2cccc(C(=O)NC3CCCC3)c2)cc1	i	-11	-2	?	-2.6	-25	2	-26	-1	-6.9
63	N=c1c(C(=O)NCCc2ccccc2)cc2c(=O)n3ccccc3nc2n1CC1CCCO1 (centres undefined)	i	12	7	179*	-4.7	10	.	-1	10	3.4
64	COC(=O)Cn1ccc(-c2ccc(Cl)cc2)c(C#N)c1=O	i	1	-4	4.8	-2.5	5	0	4	2	0.5

Screening data from PubChem BioAssay.
